Assay outcomes as filed in PubChem BioAssay.
CDC25B CDK2 inh – human CDC25B-CDK2/CyclinA binding inhibition; P30305+P24941; HTRF CDC25B-CDK2/CyclinA binding, anti-His/anti-Flag; stronger effect = higher value; AID 1259370; z-score (no concentration beside the values); 94,000 tested, 0.72% active;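 further: score is relative to mean and SD of negative controls; strong numbers were not always called active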
TAR Tat displ – HIV-1 TAR-Tat binding disruption; z-score (concentration not given with the values); 100,000 tested, 0.6% active; HIV-1 TAR RNA, Tat peptide displacement FRET; stronger effect = higher value; AID 1259389;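 further: score is relative to mean and SD of negative controls; some compounds called inactive have numbers as strong as hits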
* hit, by the source's call; . = not tested or not shown.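 How the source made its calls: active means z-score from 3 up in half or more of its runs; inactive means the rest.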 Not a hit list. Share with any hit: about 0.97%.

Structure,CDC25B CDK2 inh,TAR Tat displ
Cc1nn2c(=O)cc(COC(=O)c3ccc(Br)cc3)nc2s1,.,-0.57
O=C(NCc1cscn1)C1CCN(S(=O)(=O)c2ccc3c(c2)CCCC3)CC1,.,1.9
Cn1nnnc1SCCNCc1cccc(OCc2ccc(Cl)cc2)c1,-2.1,0.05
O=C(c1cc2nc(-c3cccs3)cc(C(F)(F)F)n2n1)N1CCCC1c1ccco1 (stereo not drawn),0.74,1.2
Cn1c(=O)c2c3oc(-c4ccccc4)nc3c(=O)n(-c3ccccc3)c2n(C)c1=O,0.66,.
Cc1nnc2c(=O)[nH]c3ccccc3n12,-0.32,.
CCC(Sc1ccc2nnc(-c3ccc(C)cc3)n2n1)C(=O)OC (stereo not drawn),-1.3,.
Cc1csc(NC(=O)C(CCS(C)(=O)=O)N2Cc3ccccc3C2=O)n1 (stereo not drawn),.,-0.21
CCOc1ccc(CCNc2nnc3c4ccccc4n(CC)c3n2)cc1,-1.7,1.3
CCOc1ccc(CN(CCc2ccc3c(c2)OCO3)Cc2cccnc2)cc1,16*,0.9
CS(=O)(=O)c1sc(C(N)=O)c2c1C=CCC2,-0.59,.
CCCCc1nn2cc(-c3ccccc3)nc2s1,0.5,1.5
CCCOC(=O)Cn1nnc2sc3c(c2c1=O)CCC(C(C)(C)C)C3 (stereo not drawn),0.05,1.9
O=C(c1cccs1)N1CCN(c2nc(-c3ccc(Cl)cc3)no2)CC1,.,0.45
CCc1nn2c(=O)cc(COc3cc(C)ccc3C)nc2s1,-0.2,0.78
CCc1ccc2oc(C(=O)Nc3nc4ccc(C)cc4s3)cc(=O)c2c1,-1.4,2.5
COc1ccc(C(=O)/C=C/Sc2nccc(C)n2)cc1,-0.41,.
O=C(CSc1ccc2nc(-c3ccccc3)cn2n1)N1CCCC1,.,-0.3
COc1ccc(-n2c(=O)c3c4c(sc3n(CC(=O)NC3CCCC3)c2=O)CCC4)c(OC)c1,-0.69,.
O=C(C1CC1)N1CCc2cc(Br)cc(S(=O)(=O)N3CCN(c4ccccc4)CC3)c21,-0.36,-3
O=C(Nc1ccc(S(=O)(=O)Nc2nccs2)cc1)c1cncc(Br)c1,1.4,0.29
O=C(Nc1nccs1)c1ccc2c(c1)OCO2,0.3,2.2
CCCNC(=O)CCCn1c(=O)c2cccn2c2cccnc21,.,0.04
Cc1cc(C)cc(NC(=O)C(C)n2nc(C)c3sc4ccccc4c3c2=O)c1 (stereo not drawn),-3.6,1.9
CN1C/C(=C\C=C\c2ccccc2)C(=O)/C(=C/C=C/c2ccccc2)C1,-1.3,.
Cn1c(-c2ccccc2)cnc1NCc1ccccc1O,-1.3,0.23
COc1ccc(NC(=O)NC2COc3ccc(OC)cc3C2)cc1 (stereo not drawn),.,1.6
CC(=NC1CC(C)(C)NC(C)(C)C1)c1c(C(F)(F)F)[nH]n(-c2nc3ccccc3s2)c1=O,-2.3,.
CSc1nc(=O)c2c(n1C)NC(=O)CC2c1cc(F)ccc1F (stereo not drawn),-1.5,-1.2
CC(C)(C)c1ccc(C2c3c(-c4ccccc4O)n[nH]c3C(=O)N2Cc2ccco2)cc1 (stereo not drawn),-1.9,1.1

4 of these compounds, set out differently:
COc1ccc(-n2c(=O)c3c4c(sc3n(CC(=O)NC3CCCC3)c2=O)CCC4)c(OC)c1
  CDC25B CDK2 inh: -0.69 | TAR Tat displ: .
O=C(C1CC1)N1CCc2cc(Br)cc(S(=O)(=O)N3CCN(c4ccccc4)CC3)c21
  CDC25B CDK2 inh: -0.36 | TAR Tat displ: -3
O=C(Nc1ccc(S(=O)(=O)Nc2nccs2)cc1)c1cncc(Br)c1
  CDC25B CDK2 inh: 1.4 | TAR Tat displ: 0.29
O=C(Nc1nccs1)c1ccc2c(c1)OCO2
  CDC25B CDK2 inh: 0.3 | TAR Tat displ: 2.2

Going on with the list:
Structure,CDC25B CDK2 inh,TAR Tat displ
Cc1cc2[nH]c(=O)c(=O)[nH]c2cc1S(=O)(=O)Nc1ccc2c(c1)oc(=O)n2C,.,1.4
CCOC(=O)c1cc(S(=O)(=O)NC2CCCc3ccccc32)cn1C (stereo not drawn),1,1.7
Clc1ccc(-n2ncc3c2ncn2nc(-c4ccccc4Cl)nc32)cc1,0.53,0.67
CC(C)CNC(=O)c1[nH]nc2c1COc1ccccc1-2,.,0.13
NC(=S)Nc1ccncc1,-2.8,.
CCn1c(SCC(=O)Nc2nc(C)cs2)nc2c(c1=O)SCC2,-1.5,1.4
CCOCCOC(=O)C1=C(C)NC2=C(C(=O)CCC2)C1c1ccc(OC)c(Br)c1 (stereo not drawn),-1.2,-0.22
CCn1c(C2CC(=O)N(CC(C)C)C2)nc2ccccc21 (stereo not drawn),-1.4,0.98
NCc1cccn1Cc1ccccc1,0.42,0.78
N=C1C(c2nc3ccccc3[nH]2)=C(O)CN1Cc1ccco1,-0.44,1.8
COc1ccc(S(=O)Cc2ccc(C(=O)N3CCN(C(=O)c4ccco4)CC3)o2)cc1 (stereo not drawn),.,1.2
COc1ccc(OCCSc2nc3c(c(=O)[nH]2)CCC3)cc1,-1.4,-0.17
CCCNC(=O)Nc1cn(CC(C)C)c(=O)c2ccccc12,.,1
COc1cc(NC(=O)Nc2nnc(N3CCCCC3C)s2)cc(OC)c1 (stereo not drawn),-2.1,1.8
Cn1nnnc1SCCCNCc1ccccc1Cl,-2.3,1.8
O=C(c1ccc(Cn2c(=O)c3cccn3c3cccnc32)cc1)N1CCC(N2CCCCC2)CC1,.,-0.95
COc1ccc(S(=O)(=O)NCCc2sc(C)nc2C)cc1,.,0.2
Cc1cc(C(=O)NC2CCCCC2)on1,-1.6,2.7
CC(C)c1ccc(C2NC(=O)NC3=C2C(=O)CC(C)(C)C3)cc1 (stereo not drawn),0.11,.
C1=CC(=C2SCCS2)C=C1,-2.6,.
COc1ccc(C(c2sc3nc(C)nn3c2O)N2CCN(CCO)CC2)cc1OC (stereo not drawn),-1.8,.
COC(=O)c1cc(-c2ccc(Cl)cc2)nc2ccccc12,-0.85,.
CCN(CC)C(=O)c1c([N+](=O)[O-])cnn1C,-1.7,1
CN(Cc1ccccc1)C(=O)Cn1ncc2c3ccccc3n(C)c2c1=O,-1.2,0.48
CCCN(CCC)CCCNc1ccc2nnc(-c3ccc(F)cc3)n2n1,0.36,-0.67
CCc1ccccc1N(C)S(=O)(=O)c1cc(-c2cc(C)no2)ccc1C,.,1.9
O=C1CCc2cc(S(=O)(=O)NC(C(=O)NCc3ccc(F)cc3)c3ccccc3)ccc2N1 (stereo not drawn),0.52,.
CCOC(=O)c1c(C)oc2nc(C)nc(Nc3ccc4c(c3)OCCO4)c12,.,0.49
CC1CCCCC1NS(=O)(=O)c1cc(F)ccc1CN1C(=O)c2cccnc2C1=O (stereo not drawn),.,1.3
CCOc1cc(-c2ccc(OCC(=O)OC)c(OC)c2)cc(=O)c2c(C)oc(C)c12,-0.16,0.23

Following part
Screens in order: CDC25B CDK2 inh, TAR Tat displ
> CCOc1ccc(N2CCn3c2nc2c3c(=O)n(CC(=O)O)c(=O)n2C)cc1
    -2.1, 1.6
> CCCCC(=O)OCc1cc(=O)n2nc(C3CC3)sc2n1
    ., -1.5
> CCOc1c(N2CCC(C)CC2)c(=O)c1=O
    ., -0.8
> Cc1cc(CNC(=O)Nc2cccc(F)c2)c(C)n1-c1ccc(F)cc1
    0.3, 0.44
> CCOc1ccc(S(=O)(=O)[C@H]2CS(=O)(=O)C[C@@H]2NCc2cccc(C)c2)cc1
    -0.9, 1.4
> COc1ccc(-n2nnc3c(C)nc(N4CCCC4)nc32)cc1
    -3.6, 0.37
> O=C1CCSc2ccc(S(=O)(=O)NCc3ccc(F)cc3)cc2N1
    ., 1.8
> O=C(CN1C(=O)CSc2ccccc21)N/N=C\c1ccc2c(c1)OCO2
    0.07, .
> CSc1ncccc1C(=O)N(C)C
    -0.8, .
> CC(C)(C)C1CCC(O)(C2CCN3Cc4ccccc4N=C23)CC1 (stereo not drawn)
    ., -0.77
> Cc1ccc(-n2nc(C)c(S(=O)(=O)N3CCc4ccccc4C3)c2C)cc1
    ., 1.6
> O=C(c1ccc2c(c1)OCO2)N1CCN(S(=O)(=O)c2cc3c4c(c2)CCN4C(=O)CC3)CC1
    ., 1
> O=C(CSc1ccc(S(=O)(=O)C2CCCCC2)nn1)Nc1ccc(Cl)cc1
    -1.1, 0.28
> O=C(Nc1nc(-c2cc([N+](=O)[O-])cs2)cs1)c1ccc(C(=O)c2ccccc2)cc1
    ., -0.27
> O=C(O)C#Cc1ccc2ccccc2c1
    3, .
> CCOC(=O)c1cc(-c2ccc(S(=O)(=O)N3CCN(C(=O)c4ccco4)CC3)s2)on1
    ., -1.9
> COc1cc(-c2nnc(SCC(=O)NC(=O)NCc3ccccc3)n2C)cc(OC)c1OC
    -0.25, .
> Cc1ccc(O)c(C(=O)c2cnc3cc(-c4ccccc4)nn3c2)c1
    -1.7, 2.3
> CC(C)(C)NC(=O)c1cc(-c2cc(C(=O)NC(C)(C)C)c3ccccc3n2)nc2ccccc12
    -0.97, 1.3
> Cc1ccc(C)c(OCc2nc3ccc(Cl)cc3[nH]2)c1
    -1.9, 0.17
> O=S(=O)(Nc1ccc(-c2ccc(N3CCCC3)nn2)cc1)c1ccc(Cl)cc1
    ., 0.63
> O=C(c1nn2c(c1Br)NC(c1cccs1)CC2C(F)(F)F)N1CCOCC1 (stereo not drawn)
    -1.6, 0.72
> c1ccc(CSC2=NCCCN2C2CCCCC2)cc1
    -1.2, .
> COc1ccc(NC(=O)c2cn3c4c(ccc(Cl)c4c2=O)OCC3)cc1OC
    ., 0.88
> O=c1c(N2CCNCC2)nc2cccnc2n1Cc1ccccc1
    -1.4, 0.12
> CCC(C(=O)NC1CCCCC1)n1nc(C)c2sc3ccccc3c2c1=O (stereo not drawn)
    -1.7, 2.8
> CS(=O)(=NS(=O)(=O)c1ccc(Cl)cc1)c1ccsc1 (stereo not drawn)
    -1.7, .
> CC(C)n1c(=O)c2cn(S(=O)(=O)c3cccc4nsnc34)nc2n(C(C)C)c1=O
    ., 1.6
> COc1ccc(Oc2ccc([N+](=O)[O-])cc2C(=O)Nc2ccc(S(N)(=O)=O)cc2)cc1
    -0.98, .
> COc1ccc(-c2nc(CSc3nc4ncccc4[nH]3)c(C)o2)c(OC)c1
    ., 2.3
> O=C(CCCc1nnc2c(=O)n(-c3cccc(F)c3)ccn12)N1CCN(c2ccccc2F)CC1
    ., 1.2
> O=C1Nc2ccc(S(=O)(=O)N(CCO)CCO)c3cccc1c23
    0.43, 0.72
> O=C(O)c1cc(-c2ccc(C=NN3C(=O)C4C5C=CC(C6CC56)C4C3=O)o2)ccc1Cl (stereo not drawn)
    -0.89, .
> O=C(C1CC1)N1CCN(c2nc3ccccc3n3cccc23)CC1
    -2.1, 2.1
> Cn1ncc2c1ncn1nc(-c3ccncc3)nc21
    -2.4, .
> CN1CCc2c(sc3c2C(=O)NC(/C=C\c2ccccc2)N3)C1 (stereo not drawn)
    0.98, -1.2
> O=C(NCCc1cccs1)c1cnc2sccn2c1=O
    ., 0.69
> COc1ccc2c(c1)c(=O)oc1c(C)c(OCC(=O)OC(C)C)ccc12
    -0.59, 0.53
> c1ccc2c(c1)OCC(c1nnc3sc(-c4cnccn4)nn13)O2 (stereo not drawn)
    -2.3, -0.03
> O=C(c1ccc2c(c1)OCO2)N1CCc2c([nH]c3ccccc23)C1c1ccc(F)cc1 (stereo not drawn)
    ., 2.1
> Cn1nnc2cc(C(=O)N3CCC(C(=O)N4CCc5ccccc54)CC3)ccc21
    ., 0.65
> COc1cc(C2C(C(=O)OCc3ccccc3)=C(C)N=C3SCCC(=O)N32)ccc1OC(C)=O (stereo not drawn)
    -0.2, 1.9
> N#CC1=C(N)N(c2ncn[nH]2)C2=C(C(=O)CCC2)C1c1ccc(Cl)cc1 (stereo not drawn)
    0.25, 0.25
> Cc1ccc(S(=O)Cc2nc(-c3ccc(C(=O)NC4CC4)cc3)oc2C)cc1 (stereo not drawn)
    ., 0.28
> O=C(NCC1CCCO1)NC1(C(F)(F)F)Oc2ccc(Cl)cc2O1 (stereo not drawn)
    -0.22, .
> Cc1cc(=O)oc2c1c(C(F)(F)F)nn2-c1ccc(Cl)cc1
    -2.4, .
> O=C(O)c1cc(-c2cc(-c3ccc(F)cc3)nc3ccccc23)n[nH]1
    0.83, 1.4
> Cn1c(=O)c2[nH]c(N3CCN(Cc4ccccc4)CC3)nc2n(C)c1=O
    -0.93, .
> C=CCOC(=O)C1=C(C)Nc2nc(SCCC)[nH]c(=O)c2C1c1ccc(F)cc1 (stereo not drawn)
    -0.78, 1.5
> CCCCNS(=O)(=O)c1cc(-c2nnc3c4ccccc4c(C)nn23)ccc1C
    -1.7, -0.63

By substructure: the entries above with a COOH group.
Screens in order: CDC25B CDK2 inh, TAR Tat displ
> CCOc1ccc(N2CCn3c2nc2c3c(=O)n(CC(=O)O)c(=O)n2C)cc1
    -2.1, 1.6
> O=C(O)C#Cc1ccc2ccccc2c1
    3, .
> O=C(O)c1cc(-c2ccc(C=NN3C(=O)C4C5C=CC(C6CC56)C4C3=O)o2)ccc1Cl (stereo not drawn)
    -0.89, .
> O=C(O)c1cc(-c2cc(-c3ccc(F)cc3)nc3ccccc23)n[nH]1
    0.83, 1.4
